# TRPML1 blocker: blocks the human TRPML1 channel | actives 0.02% (n = 390,000) | TRPML1-inducible cells, Ca2+ dye fluorescence, FDSS; stronger effect = lower value; inhibition of EC80 agonist-evoked calcium signal | Q9GZU1 | activity change, negative = inhibition, % (concentration not given with the values); in the data active means activity change below about -50%; inconclusive means about -30% to -50%; inactive means above about -30%;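 note: stimulus is agonist 54-4 at its EC80 concentration; % is set by controls: 0 for no effect and ±100 for the full control effect; compound concentration not given in the record; the text of the record puts the active cut at -80%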
# Target sequence (Q9GZU1 whole entry, looked up): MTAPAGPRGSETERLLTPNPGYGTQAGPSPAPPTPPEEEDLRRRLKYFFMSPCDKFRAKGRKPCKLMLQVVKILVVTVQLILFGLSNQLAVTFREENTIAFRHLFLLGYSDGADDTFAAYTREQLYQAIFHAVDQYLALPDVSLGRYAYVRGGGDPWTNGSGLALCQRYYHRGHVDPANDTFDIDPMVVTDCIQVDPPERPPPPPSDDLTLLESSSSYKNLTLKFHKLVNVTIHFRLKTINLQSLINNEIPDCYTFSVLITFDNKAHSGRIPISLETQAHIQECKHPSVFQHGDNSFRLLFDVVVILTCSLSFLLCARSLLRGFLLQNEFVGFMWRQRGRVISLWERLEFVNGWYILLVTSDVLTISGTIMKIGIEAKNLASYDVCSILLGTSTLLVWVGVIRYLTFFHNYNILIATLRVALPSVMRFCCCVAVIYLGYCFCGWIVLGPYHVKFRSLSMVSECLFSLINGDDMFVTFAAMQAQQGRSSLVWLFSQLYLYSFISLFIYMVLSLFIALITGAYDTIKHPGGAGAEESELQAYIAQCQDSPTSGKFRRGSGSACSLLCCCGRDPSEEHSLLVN
#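 Tet-induced TRPML1-DL cells loaded with Ca8 no-wash calcium dye were read kinetically on FDSS. Compound addition was followed by EC80 agonist 54-4 (4 uM final); inhibition was read over 110 s.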
# TRPML1 ag: human mucolipin-1 channel agonism | actives 0.12% (n = 410,000) | activation, % (concentration not given with the values) | Q9GZU1 | AID 624414 | TRPML1-expressing cells, Ca2+ dye fluorescence, FDSS; host cell line not named in the record; reference of the full effect not given here; in the data active = activation above about 50%; inconclusive = about 30% to 50%; inactive = below about 30%; note: 0% is about no effect; the text of the record puts the active cut at 80%
#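 In this qHTS format, compounds were pin-transferred onto Ca8-dye-loaded TRPML1-DL cells induced with Tet overnight, and intracellular Ca2+ fluorescence was recorded kinetically for 110 s after a 10 s baseline. A subsequent 4uM final 54-4 (EC80) addition followed by a second 110 s read served as the antagonist phase.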
# D2 potentiator: human D2 receptor positive allosteric modulation | P14416 | DiscoveRx D2 beta-arrestin cells, luminescence, 90 min; 100% = 57 uM dopamine signal | potentiation, % (no concentration beside the values) | actives 0.23% (n = 360,000) | AID 624464; active = potentiation of 50% or more; inconclusive = 30% to 50%; inactive = 30% or less;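 note: compound concentration not given in the record; tested on top of an EC20 dose of dopamine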
# Target sequence (P14416 whole entry, looked up): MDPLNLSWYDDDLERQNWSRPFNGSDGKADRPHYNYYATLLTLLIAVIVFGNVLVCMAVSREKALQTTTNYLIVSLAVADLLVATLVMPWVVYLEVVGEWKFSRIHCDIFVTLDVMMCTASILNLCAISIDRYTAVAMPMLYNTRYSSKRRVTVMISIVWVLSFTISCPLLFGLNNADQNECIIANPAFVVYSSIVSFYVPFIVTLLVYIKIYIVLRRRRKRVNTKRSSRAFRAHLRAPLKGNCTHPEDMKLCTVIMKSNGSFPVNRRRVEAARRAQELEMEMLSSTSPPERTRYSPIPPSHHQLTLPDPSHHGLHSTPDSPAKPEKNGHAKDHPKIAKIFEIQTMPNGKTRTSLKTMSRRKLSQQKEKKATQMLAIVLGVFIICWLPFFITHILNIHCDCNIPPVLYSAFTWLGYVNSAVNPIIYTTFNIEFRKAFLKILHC
#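 PathHunter D2 cells, attached overnight at 37 deg C, received compound in DMSO plus dopamine at EC20 (50 nM final) for 90 min at 37 deg C. Beta-arrestin recruitment was read as luminescence after 1 h with detection reagent at ambient temperature.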
# CtBP-E1A blk: CtBP/E1A binding inhibition; AlphaScreen GST-E1A/His-CtBP binding, 1536-well; stronger effect = lower value; control for the full effect not named in the record; activity change, % (no concentration beside the values); actives 0.49% (n = 340,000); AID 651724; in the data active means activity change below about -65%; inconclusive means about -30% to -65%; inactive means above about -30%; note: % is set by controls: 0 for no effect and ±100 for the full control effect; compound concentration not given in the record
#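 GST-E1A and His-tagged CtBP (125 nM each as 5X stock) were preincubated with pin-transferred compound for 2 h at 37 °C in the dark, then glutathione donor and nickel acceptor beads were added for 1 h before AlphaScreen reading.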
# Six1-Eya2 inh: Six1/Eya2 interaction inhibition | AlphaScreen GST-Six1/His-Eya2 binding, biochemical; stronger effect = lower value; control for the full effect not named in the record | Q15475+O00167 | actives 0.56% (n = 360,000) | AID 651725 | activity change, % (no concentration beside the values); in the data active = activity change below about -65%; inconclusive = about -30% to -65%; inactive = above about -30%; note: % is set by controls: 0 for no effect and ±100 for the full control effect; compound concentration not given in the record
#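 Homogeneous AlphaScreen proximity assay pairing GST-Six1 with His-tagged Eya2 (added as 5X mix: 250 nM and 500 nM) in 50 mM Tris pH 8.0, 300 mM NaCl, 1 mM TCEP. Glutathione donor and nickel acceptor beads; 1 h, 37 °C, dark.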
# TRPV1 potentiator: potentiators of human vanilloid receptor 1 (TRPV1); Q8NER1; TRPV1-expressing cells, Fluo-8 calcium influx, capsaicin EC20 potentiation; host cell line not named in the record; control for the full effect not named in the record; potentiation, % at 8.33 µM; actives 0.02% (n = 320,000); AID 540277; active means potentiation above 80%; inconclusive means 30% to 80%; inactive means below 30%; note: 0% is about no effect
#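 Fluo-8 calcium influx in TRPV1-expressing cells, kinetic read (ex 480/em 520 nm). Compound added and read 3 min for agonist activity, followed by capsaicin at EC20 final and 2 min further read for enhancement.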
# * marks the source's active call; other numbers are inactive results; ? = inconclusive; / = no result given.
SMILES,TRPML1 blocker,TRPML1 ag,D2 potentiator,CtBP-E1A blk,Six1-Eya2 inh,TRPV1 potentiator
CCCc1cc2c(=O)c(-c3ccc4c(c3)OCCO4)coc2cc1OC(=O)c1ccco1,-2,0.4,-28,0,22,-13
O=C(NCCO)c1cc([N+](=O)[O-])cc2c1C=Cc1ccccc1O2,-16,0.0,8,-2,1,-20
Cc1noc(C)c1C(=O)OCC(=O)Nc1ccc(S(N)(=O)=O)cc1,3,-0.9,-3,9,0,-6
Cc1ccc(S(=O)(=O)N2C[C@H]3C(=O)C[C@@H](c4ccccc4)N(S(=O)(=O)c4ccccc4)[C@H]3C[C@H]2c2ccccc2)cc1,23,1.9,-5,-1,-3,/
Cc1noc(NS(=O)(=O)c2ccc(NC(=O)c3ccc(N4C(=O)c5ccccc5C4=O)cc3)cc2)c1C,27,0.8,-1,?,-12,4
CC1(CO)COC2(OC1)C(=O)Nc1ccccc12 (stereo not drawn),8,0.7,-17,-2,-6,17
CC(C)(C)c1ccc(S(=O)(=O)NC(=O)C2(C)CCN2C(=O)Cc2ccccc2Cl)cc1 (stereo not drawn),/,0.1,3,2,0,/
O=C(NC1CCCCCC1)C(=S)N1CCCC1,-1,0.4,-2,2,8,1
CC(=O)NS(=O)(=O)c1ccc(NC(=O)/C=C/c2ccco2)cc1,3,0.6,4,7,12,-28
Cc1cc(C)nc(N2CCC(C(=O)NCc3ccco3)CC2)n1,23,-0.4,-10,7,-1,-5

# Individual results from above.
# Cc1noc(C)c1C(=O)OCC(=O)Nc1ccc(S(N)(=O)=O)cc1 in TRPML1 blocker: 3
# Cc1cc(C)nc(N2CCC(C(=O)NCc3ccco3)CC2)n1 in TRPML1 ag: -0.4

# Other entries follow:
SMILES,TRPML1 blocker,TRPML1 ag,D2 potentiator,CtBP-E1A blk,Six1-Eya2 inh,TRPV1 potentiator
O=C(NCCCN1CCOCC1)C(=O)NCc1ccccc1,31,0.4,-6,3,10,1
Nc1nnc(-c2ccccc2Cl)s1,-7,1.2,-1,0,-6,4
O=C1c2ccccc2C(=O)C1c1ccc(Cl)cc1,1,0.7,-7,11,3,-7
c1ccc(CN2CCOCCOCCOCC2)cc1,-9,0.3,-8,-2,4,5
O=C(CSCc1ccccc1)Nc1ccc(S(=O)(=O)Nc2ncccn2)cc1,3,4.2,-3,-23,18,4
Cc1ccc(S(=O)(=O)N2CCN(c3ccccc3)CC2)cc1,22,0.5,0,-2,0,15
CCn1c(=O)cc(SCC(=O)Nc2ccc(C)cn2)c2ccccc21,1,1.3,-5,/,6,3
CCN(c1ccccc1)S(=O)(=O)c1cccc(C(=O)NCC(c2cccs2)N2CCOCC2)c1 (stereo not drawn),-3,-0.9,-12,-21,0,6
Cc1ccc(NC(=O)NNC(=O)Cn2nc(-c3ccccc3)c(-c3ccccc3)c(C#N)c2=O)cc1,20,-0.7,-4,-10,-21,7
CCNC(=O)c1cccc(NC(=O)C2CC(=O)N(CCc3ccccc3)C2)c1 (stereo not drawn),1,-0.4,-9,21,-1,-22
CC(C)c1nn2c(=O)cc(O)nc2s1,16,-0.5,-7,-2,0,7
COC(=O)c1cc(NC(=O)CN2C(=O)C(=O)N(C3CCCC3)C2=O)cc(C(=O)OC)c1,10,1.9,7,-12,-9,-8
Cc1ccc2c(n1)sc1c(-c3ccccc3)c(C#N)c(N)nc12,-8,-1.2,-13,11,7,-1
Cc1ccsc1C(=O)NCC(=O)OCc1ccccc1,15,0.3,-5,-17,-8,-14
CCc1cc(C(c2ccc(OC)c(OC)c2)N2CCOCC2)c(NC(=O)c2ccccc2)s1 (stereo not drawn),15,-0.4,-18,5,-4,7
CN(CCC#N)C(=O)COC(=O)c1cccnc1Nc1ccccc1F,26,4.7,-1,2,-2,-5
CC1(C(=O)NCc2ccccn2)C=CCN1C(=O)c1ccccc1 (stereo not drawn),-8,-0.2,-5,/,-6,-9
COc1ccc(Nc2c(C)cccc2C)cc1,-4,1.0,-6,5,-2,-7
O=C(O)CN1C(=O)Nc2ccc(Br)cc2C1c1ccccc1 (stereo not drawn),-14,-0.6,-7,1,4,?
COc1cccc(-c2nn(-c3ccc(C)cc3)cc2C(=O)NCC(c2cccs2)N2CCOCC2)c1 (stereo not drawn),28,1.2,-36,-3,-6,22
COc1ccc2c(c1)c(=O)oc1c(C)c(OC(C)C(=O)N[C@@H](Cc3c[nH]c4ccc(O)cc34)C(=O)O)ccc12 (stereo partly drawn),/,/,-24,?,?,0
COC(=O)COC(=O)c1ccc(O)cc1,-7,0.5,-15,8,9,11
CC(/C=C/c1ccccc1)=N\NC(N)=S,-1,-0.4,-11,4,-9,-5
Cc1cc(C)nc(N2N=C(c3ccccc3)CC2=O)n1,-16,0.1,-13,-3,0,-1
O=C(Nc1ccc(NC(=O)c2ccccc2Br)cc1)c1ccccc1,-5,0.7,-5,1,4,-13
O=C(COc1ccccc1Br)N1CCNC1=O,-3,-0.2,-1,/,-1,-6
COc1ccc(C(=O)Nc2ccc3[nH]c(-c4cccc(OC)c4)cc(=O)c3c2)cc1,39,-0.4,-14,-2,8,7
CN1C(=O)c2ccc(C(=O)NCc3ccc4c(c3)OCO4)cc2C1=O,-15,-0.6,-9,2,6,-2
Fc1ccc(OCc2nn3cnnc3s2)cc1,2,-0.3,-5,-4,9,17
C=CCn1c(C(C)NC(=O)COC)nc2ccccc21 (stereo not drawn),-8,-0.1,-4,3,-1,-1
CCn1cc(C(=O)NCc2ccccc2OC)c(=O)c2cc(S(=O)(=O)N(C)C)ccc21,-10,0.3,1,-3,-6,-15
CN(C(=O)COC(=O)CNC(=O)c1cccs1)c1c(N)n(Cc2ccccc2)c(=O)[nH]c1=O,-12,1.7,-1,2,7,-10
CC1=C(CC(=O)O)c2cc(F)ccc2C1=Cc1ccc(S(C)(=O)=O)cc1,12,0.3,-8,-1,4,4
CC(C)Oc1ccc(C(=O)NC2CCCCC2)cc1,-5,-0.7,-11,1,-1,-2
C=Cc1ccc(COC(=O)c2cn(CC)c3nc(C)ccc3c2=O)cc1,6,2.5,-13,-15,-2,2
CCOCCCNC(=O)CN1CCN(S(=O)(=O)c2ccc3c(c2)CCC3)CC1,-11,-0.8,17,/,1,-12
CN(Cc1ccccc1)C(=O)Nc1ccccc1,-9,0.2,-7,5,1,-12
Cc1cc(S(=O)(=O)NCCCN2CCOCC2)ccc1F,11,-0.9,-39,0,4,1
COc1ccc(NC(=O)c2sc3nc(N4CCOCC4)c4c(c3c2N)CCCC4)cc1,17,-0.5,-5,3,6,/
Cc1ccc(C(=O)NCC(=O)OCCCn2c(=O)[nH]c3ccccc32)cc1,14,-0.1,-2,4,2,-15
CCC(C)[C@H]1CNC(=O)C(=O)N1CCCc1cc(OC)c(OC)c(OC)c1 (stereo partly drawn),-14,-0.4,-1,/,1,0
CCOC(=O)c1cnc2sccn2c1=O,-4,-0.1,-9,-14,-1,5
Cc1cc2nc(-c3cccc(Br)c3)c(Cc3cccc(Cl)c3)n2c(C)c1Br,/,2.1,/,4,3,/
CC(=O)c1ccc(OCC(C)C)c(Cc2c(O)nc(N)[nH]c2=O)c1,14,1.5,-4,2,19,2
NNC(=S)Nc1c(F)cc(F)cc1Br,17,0.0,-9,-23,-1,-10
N#Cc1ncc(-c2ccc3c(c2)OCCOCCOCCOCCO3)nc1C#N,27,-0.1,-5,-4,4,21
COc1ccc(-c2nnc(NC(=O)c3ccc(S(=O)(=O)N4CCc5ccccc5C4)cc3)o2)cc1,6,-0.8,-23,-2,-1,2
CCOC(=O)C1CCCN(C(=O)Nc2cccc(Cl)c2)C1 (stereo not drawn),-16,5.5,-5,6,1,-9
COc1ccc(CN(C)C(=O)Cn2cc(C)c(=O)[nH]c2=O)cc1OC,0,-1.0,2,1,5,/
Cc1ccc(C)c(OCc2cc(C(=O)N(C)Cc3nccn3C)no2)c1,-2,0.3,-8,-25,-6,6

# Next entries
SMILES,TRPML1 blocker,TRPML1 ag,D2 potentiator,CtBP-E1A blk,Six1-Eya2 inh,TRPV1 potentiator
COc1ccc(C2C(C#N)=C(N)OC3=C2C(=O)CC(C)(C)C3)cc1Cn1nc(C)c([N+](=O)[O-])c1C (stereo not drawn),2,2.0,-6,/,-2,1
COc1cccc(NC(=O)CN(C)C(=O)c2cc(Cl)nc3ccccc23)c1,-1,0.1,-33,-4,10,/
COCCCNc1nc2c(c(=O)n(Cc3ccc(F)cc3)c(=O)n2C)n1C,-7,0.0,7,-1,4,-1
COc1ccccc1NC(=O)c1sc(Cl)nc1C,/,/,18,/,-26,12
Cc1ccc(C)c(N2CCN(S(=O)(=O)c3cc4c(cc3Cl)NC(=O)CO4)CC2)c1,-11,0.2,-4,6,1,-4
CCC(=O)NNc1ncnc2ccccc12,-2,0.3,-8,/,8,5
COc1cc(NC(=O)Nc2nc(C(N)C3CCCCC3)cs2)cc(OC)c1OC (stereo not drawn),/,-0.3,?,-16,-15,/
CC1=C(C(=O)N2CCOCC2)CC(CC(=O)NCc2cccc3ccccc23)C(=O)N1CCC1=CCCCC1 (stereo not drawn),-13,0.1,-2,-4,-6,/
O=C1CC(C2CCCO2)C(=O)N1c1ccccc1 (stereo not drawn),?,0.1,-4,25,0,0
Cc1ccc(NC(=S)N(CCCN2CCOCC2)Cc2ccco2)cc1Cl,0,-0.3,-13,1,-8,-17
Cc1cc(C)cc(NC(=S)N2CCN(CCO)CC2)c1,1,0.1,-1,5,8,5

# In the list so far, nine have a Cl atom.
SMILES,TRPML1 blocker,TRPML1 ag,D2 potentiator,CtBP-E1A blk,Six1-Eya2 inh,TRPV1 potentiator
CC(C)(C)c1ccc(S(=O)(=O)NC(=O)C2(C)CCN2C(=O)Cc2ccccc2Cl)cc1 (stereo not drawn),/,0.1,3,2,0,/
Nc1nnc(-c2ccccc2Cl)s1,-7,1.2,-1,0,-6,4
O=C1c2ccccc2C(=O)C1c1ccc(Cl)cc1,1,0.7,-7,11,3,-7
Cc1cc2nc(-c3cccc(Br)c3)c(Cc3cccc(Cl)c3)n2c(C)c1Br,/,2.1,/,4,3,/
CCOC(=O)C1CCCN(C(=O)Nc2cccc(Cl)c2)C1 (stereo not drawn),-16,5.5,-5,6,1,-9
COc1cccc(NC(=O)CN(C)C(=O)c2cc(Cl)nc3ccccc23)c1,-1,0.1,-33,-4,10,/
COc1ccccc1NC(=O)c1sc(Cl)nc1C,/,/,18,/,-26,12
Cc1ccc(C)c(N2CCN(S(=O)(=O)c3cc4c(cc3Cl)NC(=O)CO4)CC2)c1,-11,0.2,-4,6,1,-4
Cc1ccc(NC(=S)N(CCCN2CCOCC2)Cc2ccco2)cc1Cl,0,-0.3,-13,1,-8,-17

# Compound activity as filed in PubChem.
